# From PubChem BioAssay
# Beta2AR agonist: agonists of human beta-2 adrenergic receptor inducing internalization; P07550; Am2.2-beta2AR cells, FAP receptor internalization, flow cytometry; reference of the scale not given here; response, % (test concentration not listed); actives 0.43% (n = 340,000); AID 504454;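 active = response above a set limit, near 3 SD of response in nonfluorescent compounds, cut at about 42% in these data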;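 also: stock transfer was 100 nL into about 11 µL; a reference agonist was the positive control; negative values mostly stem from fluorescent compounds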
# Target sequence (P07550 whole entry, looked up): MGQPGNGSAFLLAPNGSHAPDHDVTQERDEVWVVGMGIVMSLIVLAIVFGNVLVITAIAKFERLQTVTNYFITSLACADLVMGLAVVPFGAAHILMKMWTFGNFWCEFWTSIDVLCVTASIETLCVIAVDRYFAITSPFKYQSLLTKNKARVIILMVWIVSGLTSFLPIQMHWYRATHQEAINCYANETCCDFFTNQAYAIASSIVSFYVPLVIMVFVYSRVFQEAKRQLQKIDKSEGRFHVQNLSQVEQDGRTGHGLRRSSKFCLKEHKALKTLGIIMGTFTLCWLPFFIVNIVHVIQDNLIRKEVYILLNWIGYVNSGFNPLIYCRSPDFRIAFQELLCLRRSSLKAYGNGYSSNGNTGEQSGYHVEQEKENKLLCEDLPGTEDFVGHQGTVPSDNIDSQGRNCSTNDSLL
# Calb FLC: affects C. albicans growth with fluconazole | growth inhibition, % (no concentration beside the values) | AID 1979 | C. albicans CaCi-2 (fluconazole-resistant clinical isolate) + fluconazole, Alamar Blue growth, 48 h | actives 0.57% (n = 300,000);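 active = most replicates above 75%; inconclusive = exactly half above 75%; inactive = most below 75%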;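 also: all wells also contain fluconazole at 8 µg/ml as a sub-toxic cotreatment; 0% = median of DMSO wells and 100% = median of geldanamycin control wells; wells of about 8 µL received 7.5 nL stock; the first replicate is given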
# A1 inh: inhibitors of the anti-apoptotic protein A1, read as caspase activation. MEF A1-2A-BIM cells, Caspase-Glo 3/7 luminescence, 3 h; percent of clofoctol response, vehicle zero. caspase activation, % (no concentration beside the values). actives 0.066% (n = 330,000);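 active = over half of replicate activation scores above 10%, or exactly half above 10 with the replicate mean above 10; inconclusive = replicate mean below 10 yet half the replicates above 10; inactive = over half of replicates below 10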;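 also: wells of about 30 µL received 50 nL stock; many hits fall short of the cut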
# LANA-H2B inh: blocks KSHV LANA binding to histone H2A/H2B | Q9QR71 | cell-free LANA-H2A/H2B peptide, fluorescence polarization | inhibition, % (concentration not given with the values) | actives 0.6% (n = 320,000) | AID 2629; in the data active = inhibition mostly above about 10%, no sharp cut-off; inactive = mostly below about 6.7%;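 also: stock transfer was 7.5 nL into about 10 µL; 0% = median of vehicle wells and 100% = median of positive control wells; one replicate is shown; the record names a cut of 25% in any replicate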
# Beta cell apopt: blocks beta cell apoptosis; INS-1E cytokine-induced death, ATP luminescence, 48 h; percent of positive-control rescue, neutral wells zero; protection from apoptosis, % (test concentration not listed); actives 0.8% (n = 300,000);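 active = all replicates at 75% or more, or half of them and the mean; inconclusive = half reach 75% but not the mean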;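 also: 0% = cytokine-treated negative control wells and 100% = positive control rescue; higher means more ATP so stronger rescue from cytokine killing; wells of about 40 µL received 100 nL stock; the first replicate is given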
# UCH37 inh: blocks the human deubiquitinase UCH37 | inhibition, % (test concentration not listed) | actives 0.33% (n = 330,000) | purified proteasome/UCH37, Ub-AMC cleavage fluorescence;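 active = mean of two replicates above 20%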;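 also: 0% = compound-free wells with enzyme and 100% = wells lacking proteasome; stock transfer was 100 nL into about 20 µL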
# Target sequence (Q9Y5K5 whole entry, looked up): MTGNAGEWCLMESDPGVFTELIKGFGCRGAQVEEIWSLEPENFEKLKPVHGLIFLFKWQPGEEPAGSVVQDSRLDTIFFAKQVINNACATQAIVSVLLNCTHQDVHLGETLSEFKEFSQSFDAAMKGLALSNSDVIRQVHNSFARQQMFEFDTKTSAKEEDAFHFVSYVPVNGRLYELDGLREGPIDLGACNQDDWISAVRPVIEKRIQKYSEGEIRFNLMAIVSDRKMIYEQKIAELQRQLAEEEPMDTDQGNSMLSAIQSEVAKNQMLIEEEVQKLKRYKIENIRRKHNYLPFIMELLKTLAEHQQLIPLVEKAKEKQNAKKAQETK
#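 Material: human UCH37 enzyme supplied as purified proteasome complex. Measure: % inhibition of Ub-AMC cleavage fluorescence. Medium: pH 7.4 Tris-HCl (50 mM) with ovalbumin, ATP-MgCl2, DTT. Times: 30 min preincubation with enzyme, 25 min cleavage at room temperature. Detection: AMC fluorescence intensity at 355/460 nm.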
# RanGTP-Imp inh: disruptors of Ran-importin-beta complex formation – biochemical, FRET, CFP-Ran, YFP-importin-beta, homogeneous, primary screen. inhibition, % (no concentration beside the values). AID 2216. actives 1.1% (n = 300,000). cell-free CFP-Ran/YFP-importin-beta FRET ratio;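 active = most replicates above 15%; inconclusive = exactly half above 15%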;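 also: 0% = DMSO wells and 100% = Ran loaded with GDP instead of GTP; wells of about 40 µL received 100 nL stock; the first replicate is given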
# T cruzi inh: blocks replication of Trypanosoma cruzi | inhibition, % (test concentration not listed) | T. cruzi beta-gal in NIH3T3, luminescence, 90 h | AID 1885 | actives 1.4% (n = 300,000);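 active = mean inhibition across valid replicates above about 55%, limit read from the data; inconclusive = mean below that limit but half or more replicates reach it; inactive = mean below it, under half of replicates reach it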;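 also: signal also drops with host cell toxicity which is not excluded here; 0% = plate median of DMSO wells and 100% = zero luminescence signal; higher percent means less beta-gal luminescence so fewer parasites; stock transfer was 50 nL into about 50 µL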
# * = called active by the depositor; i = inactive; ? = inconclusive; . = not tested or not shown; + = active, no number.
SMILES,Beta2AR agonist,Calb FLC,A1 inh,LANA-H2B inh,Beta cell apopt,UCH37 inh,RanGTP-Imp inh,T cruzi inh
CCOC(=O)N1CCN(C(=O)CSc2ccc(C(F)(F)F)cc2[N+](=O)[O-])CC1,-13.5,9.3,-0.2,0.1,0.5,7.8,-0.2,-11.2
COc1ccccc1OCCOCCOc1ccc(C)cc1Br,21.7,19.8,0.1,-10.4,.,0.3,5.3,11.1
CN1CCN(C(=O)N2c3ccccc3CCc3ccccc32)CC1,-4.1,-5.8,-1.0,-0.6,-8.1,1.5,-0.6,-7.9
COCCCNC(=O)CN(c1ccc(Cl)c(Cl)c1)S(C)(=O)=O,-1.8,-1.7,0.4,4.3,-7.9,0.4,-3.3,0.1
Cc1cc(Br)ccc1SCC(=O)OCC(=O)NCc1ccco1,7.2,-2.1,-2.3,4.2,-2.0,6.8,5.8,-4.0
COc1ccc(N2C(=O)CC(N3CCCCC3)C2=O)cc1 (stereo not given),6.5,-12.4,1.5,0.2,-4.3,-0.3,-2.1,-10.7
O=C(COC(=O)Cc1ccc(S(=O)(=O)N2CCOCC2)s1)NCc1ccc(Cl)cc1,22.0,-12.4,-0.7,3.4,0.1,3.0,0.5,3.4
CCOc1ccc(NC(=O)CCN2CCN(S(=O)(=O)c3ccc(Cl)cc3)CC2)cc1,-1.2,3.4,0.5,-10.0,.,-0.6,4.6,9.4
N#Cc1ccc(C(=O)Nc2cc(-c3ccccc3)nn2-c2ccccc2)cc1,-12.6,.,1.4,-0.7,4.0,1.7,.,.
Cc1nn(-c2ccccc2)c(C)c1/C=N/N1CCN(c2ccccn2)CC1,-12.8,8.1,0.0,-1.3,0.6,.,-1.6,-3.3
Cc1cccc(NC(=O)/C(C#N)=C/c2cn(CC(=O)NCc3ccco3)c3ccccc23)c1,-4.0,.,52.6*,2.8,11.8,-131.4,.,.
Cc1ccc(NC(=S)NNC(=O)Cn2nc(C(F)F)cc2C(F)F)cc1,7.1,3.4,0.2,1.6,5.2,0.8,3.8,-8.1
O=C(CCCn1c(=O)[nH]c2cc(Cl)ccc2c1=O)NC1CCCCCC1,-17.9,-2.8,0.3,0.0,0.7,1.5,2.1,-3.2
COCCN1C(=O)c2ccc(C(=O)Nc3cccnc3)cc2C1=O,-9.2,-21.7,0.7,2.5,-4.7,1.9,4.2,-16.6
CCCS(=O)(=O)N1CCCC(C(=O)NCCCN2CCN(c3cccc(Cl)c3)CC2)C1 (stereo not given),-3.8,?,.,.,.,3.9,1.3,13.0
CCCC(C)NC(=O)COc1ccc(S(=O)(=O)N2CCCC2)cc1 (stereo not given),7.9,-4.5,0.5,-2.2,.,0.9,?,2.5
Cc1cc(C(=O)CN2CCCC(C)C2)c(C)n1-c1ccc(F)cc1 (stereo not given),-2.8,-3.2,0.0,-0.4,-4.0,5.7,-1.7,22.1
O=C(O)c1ccc(NS(=O)(=O)c2cccc3nsnc23)cc1,-6.2,-19.6,1.1,-1.1,-2.0,4.9,-2.6,8.2
O=S(=O)(c1ccccc1)N1CCN(c2nnc(-c3ccccc3)c3ccccc23)CC1,2.9,7.5,0.9,-0.4,16.5,4.8,-1.2,11.4
COC(=O)CN(Cc1ccccc1)S(=O)(=O)c1ccc(OC)c(OC)c1,-4.3,-8.1,0.8,-3.8,-11.5,4.3,-1.7,8.2
COc1ccc(OC)c(S(=O)(=O)NCc2csc(-c3ccccc3)n2)c1,-1.5,29.0,0.7,-4.7,4.8,3.8,0.9,-9.0
COc1cccc(/C=N/N=C(\N)c2nonc2N)c1O,1.7,-6.7,-9.2,2.4,1.2,.,-0.1,-8.7
COc1ccc(C(=O)NCC(=O)OC2CCCCC2=O)cc1 (stereo not given),-2.6,24.4,-0.6,4.8,7.4,0.0,3.7,-2.1
O=C(CNC(=O)c1ccc(Br)o1)NCC1CCCO1 (stereo not given),8.3,-7.5,0.6,-3.4,-4.3,5.1,5.0,-7.1
Clc1ccc(OCc2nn3c(-c4ccccc4)nnc3s2)c(Cl)c1,20.7,4.2,0.3,2.3,-0.9,0.7,-0.2,-6.5

# The results go on:
SMILES,Beta2AR agonist,Calb FLC,A1 inh,LANA-H2B inh,Beta cell apopt,UCH37 inh,RanGTP-Imp inh,T cruzi inh
O=C(Nc1cccc(CNCCc2c[nH]c3ccccc23)c1)c1ccccc1Cl,24.2,6.0,0.8,3.7,-3.5,3.7,-2.5,28.4
Cc1ccc(NC(=O)COc2ncnc3c(Cl)cc(Cl)cc23)cc1[N+](=O)[O-],-1.5,11.6,0.8,3.2,3.0,.,-0.1,13.0
CC1=C/C(=N\NC(=S)Nc2cccnc2)CC(C)(C)C1,1.8,40.4,.,.,.,.,1.0,49.3
O=C(CN1CCCC1)NN=C(c1ccccc1)c1ccccc1,11.2,-3.1,2.3,0.9,1.3,2.9,-3.2,4.8
CSCC(=O)N1CCCC(N2CCN(c3ccc(F)cc3)CC2)C1 (stereo not given),-4.2,1.0,-0.3,6.8,.,0.8,-0.4,-10.3
Cc1cccc(C)c1NC1=NCCCCC1,-1.0,5.0,0.8,0.4,-2.6,2.7,4.2,-10.8
Cn1c(CSCc2ccc(F)cc2)nnc1SCC(=O)Nc1nccs1,0.9,?,0.4,4.7,3.0,2.3,2.5,-10.8
Cc1ccc2c(c1)[C@H]1[C@H](CO2)[C@H](c2ccccc2)[C@]2(C)C(=O)N(Cc3ccco3)CC(=O)N12,-4.7,.,-0.1,-1.5,-3.9,-0.5,.,.
Cc1ccc(S(=O)(=O)N2CC(=NO)C2)cc1,4.8,4.0,0.9,4.1,.,4.5,-1.5,-2.4
O=C1/C(=C/c2ccco2)SC(=S)N1c1cccnc1,-3.8,7.2,.,.,.,6.4,0.4,10.2
CNC(=O)c1cc2ccc(OC)cc2oc1=O,-2.6,-0.9,0.7,2.2,-2.6,i,-3.4,-8.9
C/C(=N/NC(=O)c1ccc(C)s1)c1cccc(NC(=O)COc2ccc(Cl)cc2C)c1,-2.4,-0.7,1.2,3.9,-1.9,.,?,3.1
Cc1csc2nc(CNC(=O)C3CC=CCC3C(=O)O)cn12 (stereo not given),12.8,-4.8,-0.2,2.9,-0.7,0.6,0.2,-6.3
N/C(Cc1ccc([N+](=O)[O-])cc1)=N\OC(=O)C(c1ccccc1)c1ccccc1,-9.5,12.3,0.7,0.1,10.6,.,0.9,6.5
CCOc1ccc(-n2c(N)c(C(=O)NCc3cccnc3)sc2=S)cc1,-10.4,-6.6,-0.2,2.8,3.1,6.3,-0.6,2.5
CC1(C)CCC(C)(C)NC(=S)N1,-0.7,-6.0,-0.1,-5.6,.,0.2,6.7,-24.9
Cc1cc(=O)n2c(-c3ccccc3C)n[nH]c2n1,2.6,1.7,-1.8,2.7,-10.0,0.3,-1.8,-8.1
COc1ccc(C(=O)Nc2cccc(OC)c2)cc1,13.0,-20.8,-10.3,0.7,1.9,0.8,.,0.1
Cc1cccc(C)c1NC(=O)c1cc(S(=O)(=O)N2CCc3ccccc32)cn1C,0.6,-15.1,-0.4,2.0,1.8,4.8,4.8,4.7
CC(C)(C)NC(=O)CSc1nnc(-c2c[nH]c3ccccc23)o1,-1.7,-9.7,-1.0,0.0,.,2.3,-1.1,2.9
NC(=O)CCS(=O)(=O)c1ccc(Cl)cc1,-8.3,-6.6,-0.6,-0.3,-1.2,2.2,1.2,-11.5
CC1=NN(C(N)=S)C(=O)C1N=Nc1ccc(Cl)cc1Cl (stereo not given),0.5,-10.0,-8.5,1.8,17.5,8.3,0.3,-26.9
Nc1nc(N)nc(-c2cc(F)ccc2O)n1,-1.3,.,-1.3,-3.0,-2.1,-1.0,.,.
O=C(CS(=O)(=O)c1ccccc1)N1CCCCC1,2.8,7.1,0.1,0.4,-1.9,3.5,-2.5,-4.2
Cc1ccc(C(=O)C(C)Oc2cccc(NC(=O)c3ccco3)c2)cc1 (stereo not given),0.7,2.9,0.5,1.5,6.3,1.5,0.4,9.9

# Three entries from above, as labelled records:
> CNC(=O)c1cc2ccc(OC)cc2oc1=O
  Beta2AR agonist = -2.6	Calb FLC = -0.9	A1 inh = 0.7	LANA-H2B inh = 2.2	Beta cell apopt = -2.6	UCH37 inh = i	RanGTP-Imp inh = -3.4	T cruzi inh = -8.9

> Cc1ccc(C(=O)C(C)Oc2cccc(NC(=O)c3ccco3)c2)cc1 (stereo not given)
  Beta2AR agonist = 0.7	Calb FLC = 2.9	A1 inh = 0.5	LANA-H2B inh = 1.5	Beta cell apopt = 6.3	UCH37 inh = 1.5	RanGTP-Imp inh = 0.4	T cruzi inh = 9.9

> CC1(C)CCC(C)(C)NC(=S)N1
  Beta2AR agonist = -0.7	Calb FLC = -6.0	A1 inh = -0.1	LANA-H2B inh = -5.6	Beta cell apopt = .	UCH37 inh = 0.2	RanGTP-Imp inh = 6.7	T cruzi inh = -24.9

# Record cards, as listed above. Order of screens: Beta2AR agonist, Calb FLC, A1 inh, LANA-H2B inh, Beta cell apopt, UCH37 inh, RanGTP-Imp inh, T cruzi inh
# O=C(CN1CCCC1)NN=C(c1ccccc1)c1ccccc1 as listed: 11.2, -3.1, 2.3, 0.9, 1.3, 2.9, -3.2, 4.8
# CC1(C)CCC(C)(C)NC(=S)N1 as listed: -0.7, -6.0, -0.1, -5.6, ., 0.2, 6.7, -24.9
# Cc1cc(=O)n2c(-c3ccccc3C)n[nH]c2n1 as listed: 2.6, 1.7, -1.8, 2.7, -10.0, 0.3, -1.8, -8.1
# O=C1/C(=C/c2ccco2)SC(=S)N1c1cccnc1 as listed: -3.8, 7.2, ., ., ., 6.4, 0.4, 10.2

# The list goes on:
SMILES,Beta2AR agonist,Calb FLC,A1 inh,LANA-H2B inh,Beta cell apopt,UCH37 inh,RanGTP-Imp inh,T cruzi inh
C[C@@H]1ON(C2CCCCC2)[C@H]2c3nc4ccccc4n3C[C@@H]12,-8.3,-4.3,1.0,-2.0,-3.0,4.6,10.9,-10.7
CCC1(CC)Cc2ccccc2-c2nc(CN(C)C)[nH]c(=O)c21,-24.1,-1.1,-0.3,-6.3,5.5,1.1,-2.9,-21.0
O=C1CCC(C(=O)N2CCCCCC2)CN1CCc1ccc(Cl)cc1 (stereo not given),0.6,-1.9,0.7,2.1,-6.8,1.6,2.1,5.1
C=CCN(C(=O)CNC(=O)c1cccs1)C(C(=O)NC(C)(C)C)c1ccccc1 (stereo not given),1.4,-28.3,0.2,-11.3,-2.5,2.8,3.1,5.8
c1cc(CNCCCN2CCOCC2)ccn1,2.1,-9.1,0.0,-8.4,-4.5,1.6,0.9,5.2
CC1CCC(NS(=O)(=O)c2cccc3nsnc23)CC1 (stereo not given),4.8,10.1,-0.4,-7.2,-13.2,5.4,?,-2.9
O=C(NCC1CCCO1)c1ccc(Cl)c(S(=O)(=O)Nc2ccccc2)c1 (stereo not given),8.2,1.1,-0.5,5.0,3.5,1.9,?,4.9
COc1ccc(C(CC(=O)Nc2ccc(Cl)cc2F)NC(=O)C(F)(F)F)cc1 (stereo not given),1.9,11.8,.,-1.1,-11.4,5.0,-1.0,-21.2
O=C(Nc1ccc(NC(=O)c2ccccc2Cl)cc1)c1cccnc1,12.2,6.4,-0.4,1.6,-7.8,-8.4,0.9,1.3
O=S1(=O)CCN(C(CCO)c2cccc(C(F)(F)F)c2)CC1 (stereo not given),-0.4,-0.9,-0.2,+,-1.1,-0.2,4.2,-6.9
